CDC25B-CDK2 inh = primary biochemical HTRF screen for blockers of M-phase inducer phosphatase 2 binding to CDK2/cyclin A; HTRF CDC25B-CDK2/CyclinA binding, anti-His/anti-Flag; stronger effect = higher value; z-score (test concentration not listed); 94,000 compounds, 0.72% hits;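 further: score is relative to mean and SD of negative controls; strong numbers were not always called active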
HIV TAR-Tat = TAR RNA-Tat peptide displacers, HIV-1, primary screen, biochemical, FRET, FAM/TAMRA-labeled Tat. HIV-1 TAR RNA, Tat peptide displacement FRET; stronger effect = higher value. z-score (no concentration beside the values). 100,000 compounds, 0.6% hits;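 further: score is relative to mean and SD of negative controls; some compounds called inactive have numbers as strong as hits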
* hit, by the source's call; . = not tested or not shown.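 How the source made its calls: active means z-score from 3 up in half or more of its runs; inactive means the rest.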

Order of values – CDC25B-CDK2 inh	HIV TAR-Tat
#1 Cn1nc2c3cc(F)ccc3n(Cc3ccc(F)cc3)cc-2c1=O
→ .	0.31
#2 COc1ccc2[nH]c(C(=O)Nc3nc4ccccc4s3)cc2c1
→ -2	.
#3 C=CCn1c(SCC(=O)c2ccccc2)nnc1-c1cccnc1
→ .	1.4
#4 CCNc1cc(N(C)CCO)c2noc3c2c1C(=O)c1ccccc1-3
→ -0.52	-0.08
#5 CCCC(=O)NC(NC(=S)Nc1cccc(C)c1)C(Cl)(Cl)Cl (stereo not drawn)
→ -0.63	.
#6 Cn1ncc2c(NCc3ccc(Cl)cc3)nc(N3CCC(N4CCCCC4)CC3)nc21
→ .	0.72
#7 CC(=O)N1c2ccccc2CC1C(=O)NCCc1c[nH]c2ccc(Cl)cc12 (stereo not drawn)
→ .	2
#8 COc1ccc(C(=O)OCc2cc(=O)n3oc(C)cc3n2)cc1OC
→ .	0.76
#9 CC(C)=CCCC(C)[C@@H]1CC[C@]2(C)C3=C(CC[C@@]12C)C1(C)CC[C@H](O)C(C)(C)C1CC3 (stereo partly drawn)
→ .	0.18
#10 O=C(NCc1ncc(C(F)(F)F)cc1Cl)Nc1ccc(Cl)cc1
→ -2	.
#11 O=C1C2N=NN(Cc3ccc(Cl)cc3)C2C(=O)N1c1ccc(Cl)cc1 (stereo not drawn)
→ -1.9	-3.3
#12 O=S1(=O)N=C(Nc2ccc(F)cc2)c2ccccc21
→ -2.2	.
#13 O=C(Nc1cccc(Br)c1)c1ccn(C(=O)Nc2ccc(Cl)cc2)n1
→ -1.5	-0.16
#14 CCOC(=O)C1=C(C)Nc2ncnn2C1c1cccs1 (stereo not drawn)
→ .	-1.3
#15 O=C1c2cccnc2C(Nc2cccc(F)c2)N1Cc1ccco1 (stereo not drawn)
→ -0.61	0.26
#16 N/C(Cc1cccc2ccccc12)=N\OC(=O)c1ccccc1
→ -1.4	.
#17 CCCN1CCN(c2nc(NCCc3cccs3)c3cnn(C)c3n2)CC1
→ .	1.2
#18 CCC(CC)C(=O)Nc1ccccc1SCc1cc(=O)n2nc(C)sc2n1
→ .	0.25
#19 CC1CCN(C(=O)CCC(=O)N2CC(C)Oc3ccccc32)CC1 (stereo not drawn)
→ -2.1	0.42
#20 O=C(NC1CCCCCCC1)C1c2ccccc2C(=O)N1Cc1ccco1 (stereo not drawn)
→ -1.6	.
#21 Cc1ccc(S(=O)(=O)NCCc2nnc3ccc(SCc4ccc(Cl)cc4)nn23)cc1
→ .	1.2
#22 Cn1nnnc1SCCCNCc1cccnc1
→ -1.9	2
#23 Cc1[nH]nc(-c2ccc(S(=O)(=O)Nc3ccccc3)s2)c1C
→ .	0.57
#24 COc1ccc(-c2nc3cc(NC(=O)c4oc5ccccc5c4C)ccc3o2)cc1Cl
→ -1.6	.
#25 CN(CCCNC(=O)CCCn1c(=O)c2cccn2c2cccnc21)C1CCCCC1
→ .	-1.9
#26 CC1=C(C(=O)N2CCN(C(=O)c3ccco3)CC2)C2(CCCCC2)OC1=O
→ .	0.32
#27 CC(CCc1ccccc1)NC(=O)CSc1nc(-c2ccco2)nc2cc(=O)[nH]n12 (stereo not drawn)
→ .	-0.47
#28 CN[C@H]1CC[C@@H](c2ccc(Cl)c(Cl)c2)c2ccccc21
→ -2.2	2.2
#29 Cc1c(NC(=O)c2ccc3c(c2)OCCO3)cccc1-c1nc2ncccc2o1
→ -1.3	.
#30 Cc1[nH]c2ccccc2c1Cc1nnc(SCC(N)=O)o1
→ -1.4	0.37
#31 CCOC(=O)CNC(=O)N1CCCN(S(=O)(=O)c2ccc3c(ccn3CC)c2)CC1
→ .	1.1
#32 O=C(O)Cn1c(=O)[nH]c2c(-c3ccc(F)cc3)c[nH]c2c1=O
→ -0.63	-0.21
#33 O=C(C1CC1)N1CCCc2ccc(NS(=O)(=O)c3ccc(F)cc3F)cc21
→ .	3.1
#34 CC(C)C1=NN(C(=O)c2cccnc2)C(O)(C(F)(F)F)C1 (stereo not drawn)
→ -1.6	.
#35 N/C(=N\N=C/c1ccncc1)N/N=C\c1ccncc1
→ 0.97	.
#36 Cc1ccc2cc([N+](=O)[O-])ccc2n1
→ -2.7	.
#37 Fc1ccccc1N1CCN(c2nn3nnnc3c3ccccc23)CC1
→ .	0.11
#38 COc1ccc(-c2noc(CCCOc3ccccc3)n2)cc1OC
→ -0.86	1.3
#39 CCOC(=O)C1C2C=CC3(CN(Cc4ccc(C)cc4)C(=O)C13)O2 (stereo not drawn)
→ 2	0.98
#40 O=c1c2c(nc3c(-c4ccccc4)c[nH]n13)CCCC2
→ -1.5	-0.43
#41 CCCOc1ccccc1NS(=O)(=O)C1CCS(=O)(=O)C1 (stereo not drawn)
→ -2.7	2.1
#42 CC1=C(C(=O)Nc2ccc(F)cc2C)C2(CCCCC2)OC1=O
→ 2	-1.6
#43 O=C(Nc1cccc(-c2nc3cc(Cl)ccc3o2)c1)c1ccc([N+](=O)[O-])o1
→ -2.8	1.1
#44 CCc1cc2c(NC(CCSC)C(=O)O)ncnc2s1 (stereo not drawn)
→ 0.54	-9.6
#45 O=C(OCCn1ncc2ccccc2c1=O)c1ccc(OC(F)(F)F)cc1
→ -0.53	.
#46 Cc1onc(-c2c(Cl)cccc2Cl)c1NC(=O)N=S(C)(=O)c1ccc(Cl)cc1 (stereo not drawn)
→ -0.98	.
#47 CS(=O)(=O)c1ccc(-c2cccc(NS(=O)(=O)Cc3ccccc3)c2)nn1
→ .	1.2
#48 CC(=O)N1CCN(c2ncnc3nc[nH]c23)CC1
→ -0.95	-0.93
#49 O=C(C1CCN(Cc2cnn(-c3ccccc3)c2-n2cccc2)CC1)N1CCc2ccccc21
→ 0.22	-0.28
#50 COc1ccc(C(=O)CSc2nnc(-c3ccccc3Br)n2C)cc1
→ -1.9	0.36
#51 CCC(C)NC(=O)NCCc1c(C)nn(CC)c1C (stereo not drawn)
→ .	-0.37
#52 OC(COc1ccc(N=Cc2ccc(Cl)cc2)cc1)CN1CCCCC1 (stereo not drawn)
→ -1.3	.
#53 O=c1cc(CSc2nnc(-c3cccc(Cl)c3)o2)nc2sccn12
→ -1.3	-0.11
#54 O=C1CCSc2ccc(S(=O)(=O)NCCCN3CCc4ccccc4C3)cc2N1
→ .	1.2
#55 CC1CCc2c(sc3nnn(CC(=O)N4CCCC4)c(=O)c23)C1 (stereo not drawn)
→ 0.23	-1.4
#56 FC(F)(F)c1cccc(-n2cc(-c3ccc4c(c3)OCO4)[nH]c2=S)c1
→ -1.9	.
#57 CCCCN(C)c1nnc(NC(=O)Nc2ccc(Br)cc2)s1
→ -2.5	0.94
#58 Cc1cc(OCc2nc(-c3ccccn3)no2)ccc1Br
→ -0.15	-0.54
#59 O=C(CSC1=Nc2ccccc2C2=NC(c3ccccc3)C(=O)N12)Nc1ccc(F)cc1F (stereo not drawn)
→ .	-1.2
#60 O=C(O)C1C2C=CC(C2)C1C(=O)Nc1ccc(-c2csnn2)cc1 (stereo not drawn)
→ 0.08	.

(further entries)
Order of values – CDC25B-CDK2 inh	HIV TAR-Tat
#61 CCCNc1nc2ccc(C)cc2n2nnnc12
→ .	0.59
#62 O=C(CN1c2ccc(Br)cc2-c2ccccc2S1(=O)=O)NCc1ccco1
→ -0.38	-0.58
#63 COC(=O)c1sc(N2C(=O)c3oc4ccc(C)cc4c(=O)c3C2c2ccc(F)cc2)nc1C (stereo not drawn)
→ -0.15	0.23
#64 Cn1c(=O)c2c(SCC(=O)Nc3ccc4c(c3)OCCO4)nc(C3CCCC3)nc2n(C)c1=O
→ .	0.07
#65 COc1ccccc1N1CCN(c2cc(C)nc(-n3nc(C)cc3C)n2)CC1
→ .	0.88
#66 Cc1ccc(C2Nn3c(C)nnc3SC2C(=O)Nc2ccc(Br)cc2C)cc1 (stereo not drawn)
→ -1.6	0.8
#67 N/C(=N\O)C1CCN(c2ncccc2[N+](=O)[O-])CC1
→ -0.79	.
#68 CCOC(=O)N1CCc2c(sc3c2C(=O)NC(c2ccccc2F)N3)C1 (stereo not drawn)
→ 0.71	-0.29
#69 COc1ccc(N2C(=O)C3N=NN(CC(=O)Nc4cccc(SC)c4)C3C2=O)cc1 (stereo not drawn)
→ 0.07	0.29
#70 O=C(O)C1CCCC1C(=O)O (stereo not drawn)
→ -1.6	.
#71 CC1=C(c2ccc(C)c(C)c2)S(=O)(=O)N(CC(=O)O)C1=O
→ 1.4	1.6
#72 CN(C)CCNc1nc(Nc2ccccc2)c2cnn(C)c2n1
→ .	0.84
#73 N#Cc1cc2c(nc1SCC(=O)Nc1ccc(S(N)(=O)=O)cc1)CCCCC2
→ 0.12	0.71
#74 N#CCC1(C#N)C2CC3CC(C2)CC1C3 (stereo not drawn)
→ -1.2	.
#75 Cc1ccc(C(=O)Nc2cc(-c3cn4cccnc4n3)ccc2C)cc1
→ -1.4	.
#76 CC1(C)Cc2ccccc2-c2nc(-c3ccccc3)n(CCO)c(=O)c21
→ -1.3	1.5
#77 CCOC(=O)N1CCC(N2C(=O)c3ccccc3C2Nc2ccc(F)cc2)CC1 (stereo not drawn)
→ -0.86	1.1
#78 Cc1ccc2[nH]cc(S(=O)(=O)c3ccc(C(C)(C)C)cc3)c(=O)c2c1
→ -0.82	0.33
#79 CCCCN1C(SCC(=O)OCC)=NS(=O)(=O)c2ccccc21
→ .	0.07
#80 COc1ccc(S(=O)(=O)c2cnc3cc4c(cc3c2N2CCN(C)CC2)OCCO4)cc1
→ 0.97	0.9
#81 O=C(NCc1ccc2c(c1)OCO2)c1cnc(N2CCOCC2)nc1
→ .	1.2
#82 Clc1ccc(/C=N/Nc2ccccc2)cc1
→ -1.2	.
#83 N/C(=N\OC(=O)c1cccc(Cl)c1)c1ccc2nonc2c1
→ -2.5	.
#84 O=C(Nc1nnc(SCc2ccccc2Cl)s1)c1csnn1
→ -2.1	0.68
#85 CC(=O)N1c2ccccc2CC1C(=O)NC1CC1 (stereo not drawn)
→ .	0.94
#86 NC(=O)NO
→ -2.2	1.9
#87 CCN(CC)c1ccc(CNc2ccc3c(c2)ncn3C)cc1
→ -2.1	.
#88 COc1ccc(OC)c(-c2nc3ncccn3c2NCc2ccccc2OC)c1
→ .	1.1
#89 CCC(Sc1nc2nccnc2c(=O)n1CCc1c[nH]c2ccccc12)C(=O)NC1CCCCC1 (stereo not drawn)
→ -1.5	1.8
#90 O=C(Nc1ccc(-n2cnnn2)cc1)C1=Cc2ccccc2OC=C1
→ -0.25	0.43
#91 CCOc1ccc(/C=C/c2nc(C#N)c(NCCc3ccccc3)o2)cc1
→ -1.9	-0.38
#92 CCC(C(=O)NCc1cccs1)n1nc(C)n2c(cc3sccc32)c1=O (stereo not drawn)
→ -1.1	-1.5
#93 N/C(=N\OC(=O)Nc1ccc(OC(F)(F)F)cc1)c1cnccn1
→ -1.8	.
#94 COc1cc(Nc2nc3c(S(=O)(=O)c4ccccc4)nnn3c3ccccc23)cc(OC)c1
→ -2	0.78
#95 COC(=O)c1ccc2c(c1)NC(=O)C1CCCCN21 (stereo not drawn)
→ .	1.7
#96 Cc1cc(S(=O)(=O)NCCc2csc(-c3ccc(F)cc3)n2)ccc1F
→ .	2.6
#97 CC(Nc1oc(/C=C/c2cccs2)nc1C#N)c1ccccc1 (stereo not drawn)
→ -0.43	-0.22
#98 CCCc1nc2c3c(C)c(C)n(-c4cccc(OC)c4)c3ncn2n1
→ -0.21	2.2
#99 Cc1cc(C)nc(-n2[nH]c3nccc(-c4ccc(Cl)cc4)c3c2=O)n1
→ -3.6	-0.11
#100 COc1ccc2c(c1)C(O)(c1c(C)[nH]c3ccccc13)C(=O)N2 (stereo not drawn)
→ .	1.3

Sorted by number of heavy atoms (highest first): part of the list above.
Order of values – CDC25B-CDK2 inh	HIV TAR-Tat
#29 Cc1c(NC(=O)c2ccc3c(c2)OCCO3)cccc1-c1nc2ncccc2o1
→ -1.3	.
#47 CS(=O)(=O)c1ccc(-c2cccc(NS(=O)(=O)Cc3ccccc3)c2)nn1
→ .	1.2
#1 Cn1nc2c3cc(F)ccc3n(Cc3ccc(F)cc3)cc-2c1=O
→ .	0.31
#57 CCCCN(C)c1nnc(NC(=O)Nc2ccc(Br)cc2)s1
→ -2.5	0.94
#58 Cc1cc(OCc2nc(-c3ccccn3)no2)ccc1Br
→ -0.15	-0.54
#85 CC(=O)N1c2ccccc2CC1C(=O)NC1CC1 (stereo not drawn)
→ .	0.94
#86 NC(=O)NO
→ -2.2	1.9

New compounds follow
Order of values – CDC25B-CDK2 inh	HIV TAR-Tat
#101 O=C(CSc1nc2c(c(=O)[nH]1)CCC2)Nc1ccc(Cl)cc1F
→ -0.92	0.15
#102 Oc1c(CN2CCOCC2)cc(Br)c2cccnc12
→ 0	0.3
#103 O=C(CCc1nnc2ccc(NCc3cccnc3)nn12)N1CCCC1
→ .	-0.32
#104 Cc1csc(NS(=O)(=O)c2ccc3c(c2)C(C)(C)CN3CC(=O)N2CCCC2)n1
→ .	1.6
#105 CC1CCc2c(sc3c2CSC(C(=O)NCc2cccnc2)=C3)C1 (stereo not drawn)
→ .	-2.2
#106 CC(C)c1ccc2oc(-c3ccc(NC(=O)c4cncc(Br)c4)cc3)nc2c1
→ -0.98	2.7
#107 CCc1nn2c(=O)cc(COC(=O)c3ccccc3C)nc2s1
→ .	0.54
#108 COc1ccc(Cl)c(Cn2c(NCCO)nc3c2c(=O)n(C)c(=O)n3C)c1
→ -1.5	-0.06
#109 Nc1c(C(=O)Nc2ccc(F)cc2)sc2nc3c(cc12)CCCCC3
→ -0.72	-0.03
#110 CC(=O)C1=C(C)OC(N)=C(C#N)C1c1ccco1 (stereo not drawn)
→ 0.47	.
#111 Cc1cc2c(cc3c(SCc4nc(-c5cccc(Cl)c5)oc4C)nnc(C)n32)o1
→ .	1.3
#112 CCN(Cc1nc(-c2cccc(C)c2)no1)S(=O)(=O)c1ccc(Cl)cc1
→ -1.6	1.2
#113 COCCCNS(=O)(=O)c1ccc(-c2cnc(C)o2)cc1
→ .	1.2
#114 CCOC(=O)c1c(C)oc2ncnc(N3CCC(C)CC3)c12
→ .	6.9

Screening data from PubChem.
